Screening results: PubChem BioAssay, National Center for Advancing Translational Sciences (NCATS)
Lassa entry inh: inhibitors of Lassa virus binding or cell entry | Potency, µM (top dose mostly 37.9 µM), without a hit: at the highest dose activity change, negative = inhibition, most hits filed as inhibitors | actives 1.2% (n = 300,000) | Lassa virus pseudotype entry inhibition, cell reporter; control for the full effect not named in the record | AID 540256; active means well fitted inhibition curve with a large enough effect; inconclusive means small, poorly fitted or top-dose-only effect, or effect the other way; inactive means flat fitted curve, though single readings scatter; tested in HEK293 cells; further: on the % scale 0 is the no-effect control and ±100 the full control effect; nearly all actives have a fitted effect of over 50% in size; luciferase read-out
Cruzain inh Det: inhibitors of Trypanosoma cruzi cruzain with detergent; purified cruzain, Z-FR-AMC fluorescence, 0.01% Triton; Potency, µM, for inactives: max response, negative = inhibition, usual class: inhibitors; actives 0.43% (n = 200,000); AID 1478; active means well fitted curve in the direction sought with a large enough effect; inconclusive means small, poorly fitted or top-dose-only effect, or another doubt; inactive means no such curve, though single readings can be large; an effect the other way counts as inactive or inconclusive;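 further: plate controls were neutral wells for no effect and buffer without enzyme for full effect; nearly all actives have a fitted effect of over 40% in size; top concentration of the series not given in the record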
Target sequence (P25779 123-467 limits assumed): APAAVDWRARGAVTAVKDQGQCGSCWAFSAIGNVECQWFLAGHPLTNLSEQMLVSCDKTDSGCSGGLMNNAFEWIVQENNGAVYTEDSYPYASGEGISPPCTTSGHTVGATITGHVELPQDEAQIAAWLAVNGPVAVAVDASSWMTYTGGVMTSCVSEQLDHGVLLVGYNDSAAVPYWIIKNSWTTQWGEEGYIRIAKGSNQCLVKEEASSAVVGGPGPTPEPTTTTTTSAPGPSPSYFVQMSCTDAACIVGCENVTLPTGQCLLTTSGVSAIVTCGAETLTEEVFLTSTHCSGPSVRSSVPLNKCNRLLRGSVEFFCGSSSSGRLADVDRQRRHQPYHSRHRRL
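Enzyme 1.5 nM, Z-FR-AMC 2 uM, NaOAc 100 mM pH 5.5, DTT 5 mM, Triton X-100 0.01%; 15 min RT compound preincubation; kinetic ex360/em450, 60 s delta.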
NS1 function inh: blocks influenza NS1 protein function; S. cerevisiae slowed by influenza A NS1, growth recovery by OD600; Potency, µM (doses to about 46.1 µM), without a hit: at the top dose activity, positive = more growth; actives 0.4% (n = 270,000); further: actives are rising curves; nearly all actives have a fitted effect of over 50% in size
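In this qHTS, NS1 from influenza A is expressed in budding yeast, where it slows growth. Cells are switched from glucose to 2% galactose medium (pH 6.0, -URA), treated with compound, and growth recovery is read at OD600.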
RE007 growth inh: less growth of the S. pombe RE007 Vpr strain; S. pombe RE007 Vpr strain, BacTiter-Glo ATP luminescence, 24 h; control for the full effect not named in the record; Potency, µM (series often up to 92.2 µM), for inactives: at the top dose activity change, negative = less growth; actives 0.21% (n = 360,000); active = well fitted falling curve with a large enough effect; inconclusive = small, poorly fitted or top-dose-only effect; inactive = no such curve, though single readings can be large or run the other way;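 further: on the % scale 0 is the no-effect control and ±100 the full control effect; nearly all actives have a fitted effect of over 50% in size; the assay follows cell death caused by Vpr and the record does not say whether a fall means rescue or toxicity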
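Fission yeast RE007 carrying one integrated HIV-1 vpr copy, seeded at OD 0.01 in PMG+AL medium with 23 nL pinned compound. Grown 24 h at 30 degrees; viability read by BacTiter-Glo luminescence after 5 min.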
Marburg entry inh: Marburg virus entry inhibition; Marburg virus pseudotyped entry inhibition, cell reporter; control for the full effect not named in the record; about a third of the inactives were read at about 46 µM; Potency, µM (titrated, usually from 37.8 µM), for the others: top-dose activity change, negative = inhibition, actives largely listed as inhibitors; actives 1.8% (n = 300,000); active = well fitted inhibition curve with a large enough effect; inconclusive = small, poorly fitted or top-dose-only effect, or effect the other way; inactive = flat fitted curve, though single readings scatter; tested in HEK293 cells; about a fifth of its hits are not listed in these tables; further: on the % scale 0 is the no-effect control and ±100 the full control effect; luciferase read-out
SARS PLpro yeast: blocks SARS-CoV papain-like protease in a yeast assay; S. cerevisiae expressing SARS-CoV PLpro, growth rescue; control for the full effect not named in the record; Potency, µM (doses to about 32.9 µM), for the others: at the top dose activity, positive = growth rescue; actives 0.19% (n = 330,000); further: 0% is about no effect; nearly all actives have a fitted effect of over 55% in size; growth read by luminescence after 48 h
Cruzain noTriton: inhibitors of Trypanosoma cruzi cruzain without detergent | purified cruzain, Z-FR-AMC fluorescence, no detergent | Potency, µM, for the others: max response, negative = inhibition, hits mostly inhibitors | actives 2.3% (n = 200,000) | AID 1476; active means well fitted curve in the direction sought with a large enough effect; inconclusive means small, poorly fitted or top-dose-only effect, or another doubt; inactive means no such curve, though single readings can be large; an effect the other way counts as inactive or inconclusive;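 further: plate controls were enzyme without inhibitor for no effect and buffer without enzyme for full effect; nearly all actives have a fitted effect of over 40% in size; top concentration of the series not given in the record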
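Detergent-free condition (0.00005% Triton X-100) in acetate buffer pH 5.5 with DTT. 1.5 nM enzyme and compound were pre-mixed 15 min, then 2 uM Z-FR-AMC substrate added; reaction progress from fluorescence change between first and third reads (60 s).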
StopGo reporter: lowers the luciferase signal of an FMDV 2A StopGo reporter; AID 1159524; actives 1.2% (n = 410,000); Potency, µM (top dose mostly 57.9 µM), without a hit: at the top dose signal change, negative = less light; human cells with a luciferase reporter of 2A StopGo recoding; control for the full effect not named in the record; active = well fitted falling curve with a large enough effect; inconclusive = small, poorly fitted or top-dose-only effect; inactive = no such curve, though single readings can be large or run the other way; tested in HEK293T cells; further: on the % scale 0 is the no-effect control and ±100 the full control effect; nearly all actives have a fitted effect of over 45% in size; luciferase light after 4 h
Numbers without * were called inactive; u = inconclusive; x = no result given; & = joins results of further samples; [ ] = remark or other dose. Unless noted, the call rests on the fitted dose curve; in most records, active means well fitted rising curve with a large enough effect; inconclusive means small, poorly fitted or top-dose-only effect; inactive means no such curve, though single readings can be large or run the other way. Potency means the concentration at half of the fitted maximal effect.

molecule,Lassa entry inh,Cruzain inh Det,NS1 function inh,RE007 growth inh,Marburg entry inh,SARS PLpro yeast,Cruzain noTriton,StopGo reporter
COc1ccc(CNS(=O)(=O)NCc2ccccc2F)cc1,13%[46.1 µM],x,1%,-10%,u,0%,x,14%
CC(=O)Nc1cc(S(=O)(=O)Nc2ccccc2)c(C)cc1C,-1%,5.5%,-13%,1%,0%,1%,-1%,57%[activator]
CCOC1=C/C(=C/c2c(N)n3nc(CC(=O)N4CCCCC4)sc3nc2=O)C=CC1=O,x,x,10%,2%,x,-8%,x,-5%
O=C1Nc2ccccc2/C1=C/c1nc2ccccc2c(=O)n1-c1ccc(O)cc1,u,x,4%,-4%,u,0%,x,2%
CC(=O)c1c(N2CCCC2)[nH]c(-c2ccccc2)nc1=S,-13%,3.1%,u,11%,-5%,u,-6%,-13%
CC(C)(C)c1ccc(-n2ncc3c2CCCC3NC(=O)CCN2CCCCC2=O)cc1 (configuration not stated),-49%,x,-19%,-9%,-19%,-1%,x,u
O=C(NCc1ccccc1)C(c1cccnc1)N(C(=O)c1csnn1)c1ccccc1 (configuration not stated),-8%,x,2%,2%,-18%[46.1 µM],-4%,x,-3%
CC(C)CCNC(=S)Nc1ccccn1,13%,-8.0%,-36%,-23%,29%,u,0%,4%
NC(=O)CSc1n[nH]c(=O)n1CCc1ccccc1,8%[46.1 µM],x,u,8%,15%[46.1 µM],3%,x,-14%
CC(=O)N(NC(=O)c1ccccc1Cl)C1CC(=O)N(c2ccc(C)cc2)C1=O (configuration not stated),11%,-0.3%,-9%,4%,22%,5%,1%,x
CCCn1c(N)c(N2CCCCC2)c(=O)n(CC(=O)Nc2ccccc2C)c1=O,12%,4.3%,4%,10%,25%,5%,4%,22%
CC(=O)NNC(=O)c1sc(=S)n(C)c1C,19%,x,-2%,5%,-1%,-1%,x,-4%
O=C(COC(=O)COc1ccccc1)Nc1ccc(OC(F)(F)F)cc1,u,-5.7%,-16%,4%,9%,-10%,-9%,-8%
C#CCOCCOCCOCCNc1nc(N2CCN(C(=O)[C@H](CCC(=O)O)n3cc(C(N)Cc4ccc(O)cc4)nn3)CC2)nc(N2CCN(C(=O)[C@H](CCC(=O)O)n3cc(C(N)Cc4ccc(O)cc4)nn3)CC2)n1 (some centres not stated),x,x,1%,-5%,x,-1%,x,-12%
CCN(CC)CCCN=Cc1c(O)n(-c2ccc(C)cc2)c(=O)c2ccccc12,14%,x,-1%,12%,-29%[46.1 µM],0%,x,5%
NC(=O)CNC(=O)C1CCCc2c1[nH]c1ccc(Cl)cc21 (configuration not stated),-8%[14.3 µM],-3.7%,1%,5%,4%,1%,-3%,0%
CCCCn1c(C(C)O)nc2ccccc21 (configuration not stated),22%,4.0%,-19%,-8%,4%,3%,3%,-6%
O=C(C1COc2ccccc2O1)N1CCN(c2ccc(C(F)(F)F)cn2)CC1 (configuration not stated),8%,x,x,-6%,-18%,13%,x,0%
Cc1cc(Cl)ccc1NC(=O)CN1C(=O)C(=O)c2ccccc21,-10%[46.1 µM],-3.1%,x,x,-21%[46.1 µM],x,u,6%
O=C(NC(=S)NC1CCCCCC1)c1cncc(Br)c1,u,-3.7%,10%,x,u,23%,-16%,46%[activator]
CCOC(=O)c1cc2ccc3ccccc3c2oc1=O,x,x,-80%,u,x,-8%,x,2%
O=C(C1CC(=O)N(c2ccc(F)cc2)C1)N1CCOCC1 (configuration not stated),19%[46.1 µM],x,8%,-4%,0%[46.1 µM],2%,x,10%
CCOC(=O)c1c(C)[nH]c(C)c1S(=O)(=O)NCCc1sccc1C,x,x,-9%,-2%,x,1%,x,110%[activator]
COc1ccccc1CNC(=O)CN1C(=O)NC2(CCCCCC2)C1=O,-8%,x,x,2%,u,-4%,x,-1%
CCCN(CCC)CCNC(=O)Cn1cnc2sc(C)c(S(=O)(=O)N3CCOCC3)c2c1=O,5%,x,3%,11%,6%&6%,x,x,-7%
Cc1ccc(S(=O)(=O)N2CCC3(CC2)OCCO3)c(C)c1,x,x,-8%,29%,x,-2%,x,-12%
O=S(=O)(/C=C/c1ccccc1)Oc1ccccc1,u,-3.3%,-7%,3%,u,4%,-5%,31%[activator]
COc1ccc(NC(=O)c2sc(=S)[nH]c2N)cc1,u,-2.3%,13%,2%,9%,-4%,-13%,0%
COc1ccc(C(=O)NCC(=O)OCc2cc(=O)n3nc(C4CCCCC4)sc3n2)cc1,4%[46.1 µM],-3.1%,x,x,x,x,15%,-14%
COc1ccc(OC)c(NC(=O)CN2C(=O)c3ccccc3S2(=O)=O)c1,16%,2.8%,10%,0%,5%,18%,-2%,0%
O=C(Cn1cncn1)N/N=C/c1cc([N+](=O)[O-])ccc1O,x,x,-73%,0%,x,-6%,x,-18%
COc1ccc(C(=O)CN2CCN(c3cc(C)nc4ccccc34)CC2)cc1,x,x,5%,-10%,x,-1%,x,u
COC(=O)C(NC(=O)c1ccccc1)=C1CCCCC1,10%,8.1%,-6%,16%,26%,5%,7%,-19%
CCOC(=O)C1=C(CS(=O)(=O)c2ccc(F)c(C)c2)NC(=O)NC1c1ccc(O)c(O)c1 (configuration not stated),x,-1.7%,2%,-4%,x,2%,-11%,-10%
Cc1cccc(N2CCN(c3cc(C)nc4c(-c5ccc(Cl)cc5)c(C)nn34)CC2C)c1 (configuration not stated),-1%[46.1 µM],0.6%,x,x,x,x,-16%,-3%
O=C(NCC1CCCO1)c1cc(S(=O)(=O)N2CCOCC2)c(Cl)cc1Cl (configuration not stated),-17%,x,21%,2%,3%,-1%,x,u
O=C(CCNS(=O)(=O)c1ccc(Br)cc1)N1CCN(c2ccccc2O)CC1,-24%,x,x,19%,0%[46.1 µM],-2%,x,-12%
CC(C)CC(C)NC(=O)c1ccc(C(F)(F)F)cc1 (configuration not stated),x,x,-4%,-4%,x,-1%,x,30%
CCN(C(=O)CSc1nnc(-c2ccncc2)n1-c1ccccc1)C1CCS(=O)(=O)C1 (configuration not stated),3%,x,5%,-8%,u,1%,x,-11%
COC(=O)c1ccc(CN(C(C)=O)c2ccccc2)o1,16%,1.9%,3%,15%,-15%&-15%[46.1 µM],9%,1%,17%
CCCC12CN3CC(C)(CN(C1)C3c1ccc([N+](=O)[O-])o1)C2=O (configuration not stated),u,x,3%,-6%,24%,0%,x,-11%
COc1ccc(C2C=C(c3ccccc3)Nc3nc(NS(=O)(=O)c4ccccc4)nn32)cc1 (configuration not stated),1%[46.1 µM],-4.6%,x,x,5%[46.1 µM],x,-4%,1%
O=c1c2ccccc2nnn1Cc1nnc(-c2ccccc2Br)o1,1%,-4.9%,-101%,-8%,8%,-8%,-10%,65%[activator]
CSCCC(=O)Nc1cc(S(=O)(=O)N2CCOCC2)ccc1N1CCN(C)CC1,12%[46.1 µM],x,x,-6%,-14%[46.1 µM],0%,x,20%
Cc1ccc(-n2ncc(C(=O)Nc3cc(Cl)ccc3Cl)c2C2CCNCC2)cc1,u,x,x,-20%,u,3%,x,0%
COc1ccc([C@H]2C(C#N)=C([S-])N[C@](C)(O)[C@@H]2[n+]2ccccc2)cc1,x,x,8%,3%,x,1%,x,-9%
COc1ccc(NC(=O)CC2C(=O)N(Cc3ccco3)C(=S)N2C(C)C)cc1 (configuration not stated),6%[46.1 µM],x,x,11%,-13%[46.1 µM],0%,x,-4%
COc1ccc(N2CCN(S(=O)(=O)c3ccc(CC(C)C)cc3)CC2)cc1,8%[46.1 µM],-2.2%,x,x,0%[46.1 µM],x,-7%,-8%
C/C(=N\NC(=O)Nc1ccccc1)c1ccccc1,23%,-2.1%,-19%,3%,u,9%,u,20%
CSc1ccc(CN(C)CC(=O)NC(=O)NCCC2=CCCCC2)cc1,u,x,x,10%,u,-4%,x,-13%
CCN(CC)S(=O)(=O)c1ccc2c(c1)N(CC(=O)N(C)Cc1ccccc1)C(=O)CO2,7%[46.1 µM],-0.8%,x,x,20%[46.1 µM],x,-8%,-4%
Cc1ccc(CN2C(=O)CCC2C(=O)NC2CCCC2)cc1 (configuration not stated),13%,4.0%,1%,3%,-4%,15%,4%,-9%
Cc1cc(C)nc(SCCS(=O)(=O)Cc2ccc(Cl)cc2)n1,-8%,-2.4%,3%,-3%,-14%,11%,13%,-7%
CN1CCN(S(=O)(=O)c2cccs2)CC1,2%,x,6%,-11%,-7%[46.1 µM],-1%,x,-19%
Cc1ccc(NC(=O)N2CCN(c3cc(-c4noc(C)n4)ccc3C)CC2)c(C)c1,u,-0.5%,x,x,x,x,3%,-2%
COc1ccc(C2C(C#N)=C(N)N3C(=C2C#N)Sc2ccccc23)cc1 (configuration not stated),x,-6.5%,0%,x,x,-16%,6.3µM*,x
CN1CCC(C)(O)C2CCCCC21 (configuration not stated),u,x,x,1%,-2%[46.1 µM],-2%,x,1%

Three compounds drawn at random from those above, as already listed:
molecule,Lassa entry inh,Cruzain inh Det,NS1 function inh,RE007 growth inh,Marburg entry inh,SARS PLpro yeast,Cruzain noTriton,StopGo reporter
COc1ccc(NC(=O)CC2C(=O)N(Cc3ccco3)C(=S)N2C(C)C)cc1 (configuration not stated),6%[46.1 µM],x,x,11%,-13%[46.1 µM],0%,x,-4%
COc1ccc([C@H]2C(C#N)=C([S-])N[C@](C)(O)[C@@H]2[n+]2ccccc2)cc1,x,x,8%,3%,x,1%,x,-9%
Cc1cc(C)nc(SCCS(=O)(=O)Cc2ccc(Cl)cc2)n1,-8%,-2.4%,3%,-3%,-14%,11%,13%,-7%
